# Source: PubChem BioAssay (National Center for Advancing Translational Sciences (NCATS))
# PINK1 modulator: PINK1 expression modulation; Potency, µM (doses to about 76.6 µM), for inactives: at the highest dose activation (PINK1 increase), most hits filed as activators; PINK1 immunofluorescence, high-content cytometry, 24 h; actives 0.2% (n = 410,000); AID 624263; active = well fitted activation curve with a large enough effect; inconclusive = small, poorly fitted or top-dose-only effect; inactive = flat fitted curve, though single readings scatter; cell line not stated here;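 note: potency is the fitted concentration of half-maximal effect; % of control where 0% means no effect; nearly all actives have a fitted effect of over 65% in size; a mitochondrial uncoupler was the plate control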
#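 A stable cell line was treated with compounds at 5 concentrations for 24 hours, with CCCP as control. PINK1 levels and mitochondrial localization were measured by immunofluorescence with mitochondrial, cell and nuclear markers after fixation, read by laser-scanning cytometry.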
# D2 potentiator: potentiates the human D2 dopamine receptor allosterically; P14416; DiscoveRx D2 beta-arrestin cells, luminescence, 90 min; 100% = 57 uM dopamine signal; potentiation, % (test concentration not listed); actives 0.23% (n = 360,000); AID 624464; active = potentiation of 50% or more; inconclusive = 30% to 50%; inactive = 30% or less;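 note: compound concentration not given in the record; tested on top of an EC20 dose of dopamine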
# Target sequence (P14416 whole entry, looked up): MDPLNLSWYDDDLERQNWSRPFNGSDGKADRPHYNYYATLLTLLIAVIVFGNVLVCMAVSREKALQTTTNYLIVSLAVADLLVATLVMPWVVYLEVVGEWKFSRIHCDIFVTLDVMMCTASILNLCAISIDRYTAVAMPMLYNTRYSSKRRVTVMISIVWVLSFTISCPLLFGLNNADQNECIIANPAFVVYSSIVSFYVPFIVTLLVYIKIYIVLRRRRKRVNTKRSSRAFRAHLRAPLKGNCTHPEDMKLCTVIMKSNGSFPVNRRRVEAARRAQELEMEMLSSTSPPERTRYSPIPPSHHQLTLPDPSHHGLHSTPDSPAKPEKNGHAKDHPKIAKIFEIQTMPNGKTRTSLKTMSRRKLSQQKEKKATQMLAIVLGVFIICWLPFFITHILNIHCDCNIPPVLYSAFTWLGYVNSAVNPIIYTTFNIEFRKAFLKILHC
#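 D2 cells co-treated with compound plus 50 nM dopamine (EC20) for 90 min at 37 deg C to detect potentiation. Beta-arrestin recruitment was read as enzyme-fragment luminescence after 1 h at ambient temperature. Full response was set by 57 uM dopamine.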
# TRPML1 agonist: human mucolipin-1 channel agonism; Q9GZU1; TRPML1-expressing cells, Ca2+ dye fluorescence, FDSS; host cell line not named in the record; reference of the full effect not given here; activation, % (concentration not given with the values); AID 624414; actives 0.12% (n = 410,000); in the data active = activation above about 50%; inconclusive = about 30% to 50%; inactive = below about 30%; note: 0% is about no effect; the text of the record puts the active cut at 80%
# Target sequence (Q9GZU1 whole entry, looked up): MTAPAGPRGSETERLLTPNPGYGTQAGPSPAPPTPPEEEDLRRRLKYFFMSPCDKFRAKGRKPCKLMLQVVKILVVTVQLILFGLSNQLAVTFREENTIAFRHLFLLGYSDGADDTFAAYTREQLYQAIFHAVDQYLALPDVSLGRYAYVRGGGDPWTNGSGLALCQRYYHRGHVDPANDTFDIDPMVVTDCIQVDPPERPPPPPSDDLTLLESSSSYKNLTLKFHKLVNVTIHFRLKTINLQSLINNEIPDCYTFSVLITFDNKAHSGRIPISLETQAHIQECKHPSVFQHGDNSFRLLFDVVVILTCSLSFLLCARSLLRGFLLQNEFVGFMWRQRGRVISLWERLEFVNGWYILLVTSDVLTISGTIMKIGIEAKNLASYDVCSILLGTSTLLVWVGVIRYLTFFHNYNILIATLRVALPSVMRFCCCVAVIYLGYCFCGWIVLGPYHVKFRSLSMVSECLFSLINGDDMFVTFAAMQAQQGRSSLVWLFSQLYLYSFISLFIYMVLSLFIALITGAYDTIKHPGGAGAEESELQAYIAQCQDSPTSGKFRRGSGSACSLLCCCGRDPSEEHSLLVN
#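 Kinetic FDSS Ca2+ read in Tet-induced TRPML1-DL cells (ABD Ca8 dye plus quencher, 45-90 min RT loading): baseline, then compound, then 110 s agonist window; EC80 agonist 54-4 at 4uM final added afterwards for a 110 s antagonist window.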
# D2 agonist: agonists of human D2 dopamine receptor (beta-arrestin). DiscoveRx PathHunter D2 beta-arrestin, luminescence, 90 min; 100% = 57 uM dopamine signal. AID 624465. P14416. actives 0.084% (n = 360,000). activation, % (no concentration beside the values); in the data active = activation above about 40%; inconclusive = about 15% to 40%; inactive = below about 15%; note: compound concentration not given in the record; the text of the record calls up to 30% inactive
#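 DiscoveRx PathHunter D2 beta-arrestin cells (2,100/well) attached overnight, then compound-stimulated 90 min at 37 C in HBSS/10 mM HEPES/0.1% Tween-20 buffer; beta-galactosidase complementation read by luminescence after 1 h at ambient temperature. Dopamine 57 uM final (EC100) as control.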
# CtBP-E1A blk: blocks the CtBP interaction with E1A; AlphaScreen GST-E1A/His-CtBP binding, 1536-well; active compounds read low; control for the full effect not named in the record; activity change, % (test concentration not listed); actives 0.49% (n = 340,000); AID 651724; in the data active means activity change below about -65%; inconclusive means about -30% to -65%; inactive means above about -30%; note: % is set by controls: 0 for no effect and ±100 for the full control effect
#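 Homogeneous bead-based format: GST-tagged E1A captured on glutathione donor beads, His-tagged CtBP on nickel acceptor beads; compounds precede bead addition by 2 h at 37 °C.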
# Six1-Eya2 inh: inhibitors of human Six1/Eya2 interaction. activity change, % (concentration not given with the values). actives 0.56% (n = 360,000). AlphaScreen GST-Six1/His-Eya2 binding, biochemical; active compounds read low; control for the full effect not named in the record. Q15475+O00167; in the data active = activity change below about -65%; inconclusive = about -30% to -65%; inactive = above about -30%; note: % is set by controls: 0 for no effect and ±100 for the full control effect
#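 AlphaScreen luminescence read after one hour at 37 °C in darkness. Pin-transferred compounds met GST-Six1 and His-Eya2 protein (5X stock 250 nM/500 nM) plus glutathione donor and Ni-chelate acceptor beads (5X, 50 ug/mL).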
# Numbers without * were called inactive; u = inconclusive; x = not tested or not shown; & = joins results of further samples; [ ] = dose if it differs, or a comment.
SMILES,PINK1 modulator,D2 potentiator,TRPML1 agonist,D2 agonist,CtBP-E1A blk,Six1-Eya2 inh
CCOc1cc(/C=C2/C(=O)ON=C2C)ccc1OCc1ccc(F)cc1,-0.8%[38.3 µM],-10,-0.8,-0.4,12,5
Cc1cc(C(=O)Nc2ccc(C)c(S(=O)(=O)N3CCOCC3)c2)c(C)o1,-1.0%,4,1.9,3.7,-3,10
Cc1cccc(CN2CCSc3sccc3C2=O)c1,1.2%,-9,1.8,2.3,0,3
CCOc1cccc(=O)c2c(C)oc(C)c12,x,3,2.6,-4.7,-14,-11
COc1ccc(Nc2nnc(SCC(=O)Nc3ccc4[nH]c(=O)[nH]c4c3)s2)cc1,15%,-1,0.8,10,x,0
O=[N+]([O-])c1ccc(C[n+]2cc(-c3ccc(Cl)c(Cl)c3)n3c2CCCCC3)cc1,1.3%,-30,-0.5,-5.1,x,-1
COc1cc(C(=O)NNC(=O)C2CC2)cc(OC)c1OC,0.0%,-9,1.8,-11,x,-2
Cc1nc2ccccc2c(=O)n1N,-0.7%,-13,-0.2,0.4,1,1
Cc1cccc(NC(=O)COC(=O)C2COc3ccccc3O2)c1C (stereo unspecified),0.5%,-14,1.4,0.0,-2,7
COc1cc(Br)cc2cc(C(=O)OC3CCN(C)CC3)c(=O)oc12,11%[38.3 µM],-11,-0.2,0.9,-4,-1
Cc1ccccc1Nc1nnc(SCC(=O)NCc2ccco2)s1,0.6%,-6,-0.3,0.2,3,1
CCCn1c(N)c(N(CCOC)C(=O)c2c(CC)noc2C)c(=O)[nH]c1=O,1.6%,-8,-0.7,-1.7,7,3
COc1ccc(-c2cc(=O)c3c(OC)c(OC)c(OC)c(OC)c3o2)cc1OC,0.6%&0.4%,10,1.5,3.0,u,-14
Cn1cnnc1SC(C(=O)Nc1ccc(F)cc1)c1ccccc1 (stereo unspecified),-1.4%,-5,-0.6,-3.3,0,-9
Cc1ccc(OCCn2c(SCCO)nc3c(N)ncnc32)cc1,1.2%,-9,-0.6,-3.4,1,0
COc1ccc(OC)c(C(O)c2nc3ccccc3n2C)c1 (stereo unspecified),1.6%,-1,-0.7,1.6,x,3
CN(CC(=O)Nc1cc(S(=O)(=O)N2CCCC2)ccc1Cl)Cc1nc2ccccc2c(=O)[nH]1,4.2%,1,2.6,1.1,-9,-2
COc1ccccc1CN1C(=O)c2ccccc2C1C(=O)NC1CCC(C)CC1 (stereo unspecified),-0.4%,-1,0.9,-1.2,-3,-4
CCCNCC(=O)Nc1cccc(S(=O)(=O)NC2=NCCCCC2)c1,-0.1%,-8,0.5,-3.8,3,-8
Cc1sc2nc(SCCN(C)C)n(-c3ccccc3)c(=O)c2c1-c1ccc(F)cc1,7.5%,-14,2.3,-4.9,u,-9
CCOC(=O)N1CCN(c2c(N3CCc4ccccc43)c(=O)c2=O)CC1,-0.1%,3,-0.8,1.3,0,3
Cn1nc(C(=O)NNC(=O)c2ccc(Cl)c(S(N)(=O)=O)c2)c2ccccc2c1=O,0.0%,-6,0.6,-3.2,18,-3
CCN1CCN(c2nc3ccccc3nc2C(C#N)S(=O)(=O)c2ccc(C)cc2)CC1 (stereo unspecified),1.2%,-5,0.9,-1.8,3,2
CCCC(=O)n1nc(-c2ccc(OC)cc2)nc1N,2.1%,6,2.0,-0.8,-1,4
O=C1CC(N2CCSCC2)C(=O)N1c1cccc(Cl)c1 (stereo unspecified),1.6%,-3,-0.1,-6.8,-21,1
O=C(CSc1nc2ccc(Nc3nc(N4CCOCC4)nc(N4CCOCC4)n3)cc2s1)N1CCOCC1,1.7%,-9,-0.8,0.3,2,-1
O=C(/C=C/c1ccccc1Cl)NCCc1ccc(F)cc1,2.0%,-19,0.5,-3.8,10,10
CCCCOP(=O)(c1ccc(N(C)C)cc1)C(O)c1ccc(N(C)C)cc1 (stereo unspecified),1.7%,-17,0.7,1.7,-11,-8
O=C(COC(=O)/C=C/c1ccccc1)NC(=O)NCc1ccccc1,4.8%,-3,3.5,0.9,-8,2
COc1ccc(C(=O)NCC(=O)N2CCN(c3ccccc3)CC2)cc1,3.5%,-3,-0.1,-0.3,-12,13
COc1ccc(-n2c(C)nc3cc(C(=O)NCCN4CCOCC4)ccc32)cc1,2.2%[38.3 µM],8,1.1,-0.2,3,1
NS(=O)(=O)c1cccc(NC(=O)c2cc(=O)c3ccccc3o2)c1,6.1%,1,0.0,3.1,0,0
CCc1ccc(CNC(=O)c2ccc3c(c2)NC(=O)C(N2CCOCC2)S3)cc1 (stereo unspecified),-0.1%,-18,3.8,-1.7,x,0
COc1ccc(C(=O)NCCCOC(C)C)cc1OC1CCN(C(C)=O)CC1,-0.7%,8,0.5,0.4,4,5
C[C@H](NC(=O)c1ccc(Br)cc1)C(=O)NCc1ccc(S(N)(=O)=O)cc1,-2.9%,0,-0.5,-0.7,3,-10
C/C(N)=C(\C#N)C(=O)NCc1ccccn1,-0.7%,0,0.3,-1.0,-3,0
S=C(NCCc1ccccc1)Nc1c(Cl)cccc1Cl,0.3%,-8,1.9,-2.1,-1,-5
COc1ccc(C(=O)c2cc([N+](=O)[O-])ccc2N2CCOCC2)cc1,6.2%,-9,0.5,1.4,-12,-4
COc1ccc(CNC(=O)c2c(C)cc(=O)oc2C)cc1OC,-0.4%,1,-0.3,-1.2,2,4
CC(C)(C)c1ccc2c(c1)N(CC(=O)N1CCCC1)C(=O)CO2,2.1%,-1,0.5,1.4,3,18
O=[N+]([O-])c1cnccc1Nc1cccc(F)c1,-2.5%,13,0.6,1.4,-2,-2
CCCCn1c(N)c(N(CCOC)C(=O)CCCc2nc3ccccc3c(=O)[nH]2)c(=O)[nH]c1=O,3.2%,12,0.4,-3.4,0,14
Cc1c(S(=O)(=O)Nc2cccc(Cl)c2)c(=O)n(C)c(=O)n1C,-0.1%,-6,0.0,-1.8,2,2
Cc1cc(C)n(CCCNC(=O)c2ccc3c(c2)NC(=O)CS3)n1,1.0%,-28,0.1,-0.8,-3,7
CCCCn1c(N)c(N(CC(C)C)C(=O)c2ccc(C)o2)c(=O)[nH]c1=O,1.5%,-2,0.3,-3.0,-2,2
Cc1cc(=O)oc(C)c1C(=O)Nc1ccc(N(C)C)cc1,0.8%,-18,0.1,-6.3,x,-1
O=C(NCc1ccc(Cl)cc1)C(=O)c1cn(CC(=O)N2CCOCC2)c2ccccc12,2.9%,-10,-0.4,-2.9,-4,0
Cc1cc(C(=O)CN2C(=O)NC3(CCCc4ccccc43)C2=O)c(C)n1C (stereo unspecified),-1.1%,-2,-0.2,-5.4,1,u
CNC(=O)c1cc(C(=O)c2ccc(Cl)cc2)c(Br)[nH]1,1.1%,-4,-0.5,-1.1,x,-10
CCOC(=O)/C(N=Nc1cc(C(=O)O)cc(C(=O)O)c1)=C(\O)CCl,6.8%,-5,0.2,-1.3,-2,11

# Structures from the list above that have a nitro group on carbon (three):
SMILES,PINK1 modulator,D2 potentiator,TRPML1 agonist,D2 agonist,CtBP-E1A blk,Six1-Eya2 inh
O=[N+]([O-])c1ccc(C[n+]2cc(-c3ccc(Cl)c(Cl)c3)n3c2CCCCC3)cc1,1.3%,-30,-0.5,-5.1,x,-1
COc1ccc(C(=O)c2cc([N+](=O)[O-])ccc2N2CCOCC2)cc1,6.2%,-9,0.5,1.4,-12,-4
O=[N+]([O-])c1cnccc1Nc1cccc(F)c1,-2.5%,13,0.6,1.4,-2,-2

# Next part:
SMILES,PINK1 modulator,D2 potentiator,TRPML1 agonist,D2 agonist,CtBP-E1A blk,Six1-Eya2 inh
O=C(COC(=O)c1nc(Cl)ccc1Cl)Nc1ccccc1OC(F)F,0.0%,-4,-0.5,0.2,-17,20
CN1CCN(S(=O)(=O)c2cccc(C(=O)N(c3ccccn3)C3CCCCC3)c2)CC1,0.2%,14,-0.1,1.4,6,5
CN1CCN(/N=C/c2ccc(N(C)c3ccccc3)cc2)CC1,-1.1%,-2,-0.2,-0.8,-10,-16
CCCN1Cc2cccc(C(=O)Nc3ccc(C)cc3)c2C1=O,4.2%,-11,0.7,-0.7,-1,0
CC(Oc1cc2oc(=O)c3c(c2cc1Cl)CCCC3)C(=O)NCc1ccncc1 (stereo unspecified),4.3%,0,1.5,-3.7,x,21
O=C(CN(Cc1ccccc1)S(=O)(=O)c1ccc2c(c1)OCCO2)N/N=C/c1cccc(Br)c1,-0.7%,-29,-0.2,-1.5,-7,-19
CN(c1ccc(OCC(=O)Nc2nc(-c3ccccc3)cs2)cc1)S(=O)(=O)c1ccc(F)cc1,1.5%,6,-0.3,-6.8,-5,-3
CCOc1ccc(CN(C)C(=O)CN2C(=O)NC(c3ccccc3)(c3ccccc3)C2=O)cc1,-0.3%,-16,-1.3,-2.0,x,-19
CCCCOc1cccc(C(=O)NC(=S)Nc2cccnc2)c1,3.5%,-20,1.4,-5.6,-18,-4
Cc1cc(C(O)c2ncc(-c3ccccc3F)[nH]2)ccc1F (stereo unspecified),0.5%,-12,-0.7,5.2,2,-5
COc1ccc(O)c(-c2cc(-c3ccccc3[N+](=O)[O-])[nH]n2)c1,-1.5%,3,1.8,-5.6,-14,-10
O=C(CN1CCCC1c1cccs1)Nc1cc(S(=O)(=O)N2CCCC2)ccc1Cl (stereo unspecified),1.4%,-7,1.4,-0.3,6,-1
COC(=O)[C@H](CC(C)C)NC(=O)Nc1ccc(F)cc1,1.4%,2,0.0,0.0,8,-1
Cc1ccc(NC(=O)Cc2nc(CCl)cs2)cc1,-0.8%,-21,0.8,-4.3,-4,-4
CC1=NNC(=O)C1Oc1ccccc1 (stereo unspecified),2.9%,0,1.3,7.6,5,0
CCN(C(=S)NCc1ccccc1)c1ccccc1,3.3%,-1,0.9,-3.7,8,3
CCOc1cc(-c2noc(-c3ccncc3)n2)cc(Br)c1OC,-0.9%,-4,1.2,0.6,10,-1
O=C(O)c1ccc(S(=O)(=O)N2CCCc3ccccc32)cc1,1.8%,-4,-0.8,-6.1,3,4
CN(C)c1ccc(P(=O)(OC2CCCCC2)C(O)c2cccnc2)cc1 (stereo unspecified),1.1%,-12,0.2,-3.1,0,-1
Cc1nonc1NC(=O)CSc1nnnn1-c1ccccc1,1.2%,-9,-0.4,-3.4,-7,-2
COc1ccc(/C=N/NC(=O)c2[nH]c(C)c(C(=O)N/N=C/c3ccc(OC)cc3)c2C)cc1,2.0%,23,-0.5,1.6,-11,u
CCOC(=O)C1CCCN(CC(=O)Nc2ccc(C(=O)Nc3ccccc3OC)cc2)C1 (stereo unspecified),1.7%,3,2.3,-0.4,-20,-1

# Reprinted from above (2 entries):
SMILES,PINK1 modulator,D2 potentiator,TRPML1 agonist,D2 agonist,CtBP-E1A blk,Six1-Eya2 inh
CCOc1cc(/C=C2/C(=O)ON=C2C)ccc1OCc1ccc(F)cc1,-0.8%[38.3 µM],-10,-0.8,-0.4,12,5
Cc1cc(C(=O)Nc2ccc(C)c(S(=O)(=O)N3CCOCC3)c2)c(C)o1,-1.0%,4,1.9,3.7,-3,10
